High-throughput results as filed in PubChem.
Sa RN4220 lethal – S. aureus RN4220 growth inhibition. OD600, 16 h. inhibition, % (concentration not given with the values). actives 0.33% (n = 330,000);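 active means z-score of -3 or lower and OD600 up to 0.18 on both plates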;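 further: plate controls were untreated cells for no effect and reference antibiotic for full effect; stock transfer was 100 nL into about 80 µL; one replicate is shown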
ugtP null kill – kills S. aureus RN4220 lacking UgtP; S. aureus RN4220 ugtP deletion, OD600 growth, 16 h; some inactives read as strong as hits; growth inhibition, % (test concentration not listed); actives 0.54% (n = 330,000);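 active means z-score under -3 and OD600 up to 0.15 on both plates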;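 further: plate controls were untreated wells for no effect and antibiotic for full effect; wells of about 80 µL received 100 nL stock; the first replicate is given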
PrP UTR inh – suppresses PrP 5' UTR mRNA reporter expression. AID 488862. cell-based PrP 5' UTR mRNA reporter, plate reader. actives 0.35% (n = 340,000). inhibition, % (concentration not given with the values);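 active means every replicate at 50% or more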;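 further: 0 = median of the neutral control wells; tested in H4 reporter cells; numbers are from one replicate; inactives centre near -14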
BJeLR viability – kills HRASV12-expressing BJeLR cells. BJeLR (HRASV12) viability, CellTiter-Glo ATP luminescence, 48 h; reference of the scale not given here. inhibition, % (no concentration beside the values). actives 0.17% (n = 300,000);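 active means replicate mean above 50%; inconclusive means above 50% but judged a plate artefact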;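 further: 50 nL library stock added to about 25 µL; numbers are from one replicate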
Autofluor counter – counter-screen for toxin protease inhibitors: compound fluorescence. compound autofluorescence counterscreen, microsphere flow cytometry; hits give high values. fluorescence intensity (no concentration beside the values). actives 3.1% (n = 360,000). AID 624483;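 active means at least 3 SD above the mean of all compounds, about 16000 in these data; inconclusive means too few beads counted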;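 further: 100 nL of 1 mM stock went into each well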
Mtb hypoxia rep – Mtb hypoxia fluorescent reporter inhibition; actives 0.1% (n = 300,000); M. tuberculosis hypoxia-regulated fluorescent reporter, fluorescence; fluorescence inhibition, % (test concentration not listed);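 active means 35 to 45% if threefold the growth effect, above 45% if 1.5-fold the growth effect; inactive means the rest, general growth blockers included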;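 further: wells of about 50 µL received 100 nL stock; 0% = vehicle wells and 100% = reference inhibitor wells; whole bacteria with a GFP reporter of the hypoxia response; strong numbers were not always called active; many hits fall short of the cut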
Mtb hypoxia rep growth – also measured in Mtb hypoxia rep; calls as there; growth inhibition, %; measured here: M. tuberculosis growth (absorbance);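 0% = vehicle and 100% = reference antibiotic; read after six days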
Numbers without * were called inactive; ? = inconclusive; nt = no result given.

A first look, 18 compounds:
SMILES	Sa RN4220 lethal	ugtP null kill	PrP UTR inh	BJeLR viability	Autofluor counter	Mtb hypoxia rep	Mtb hypoxia rep growth
C/C(N)=C(/C#N)C(=O)COc1ccc(Cl)cc1Cl	nt	nt	-31	-2	2485	nt	nt
O=C(c1cc2nc(-c3ccccc3)cc(C(F)(F)F)n2n1)N1CCCC1	-0.5	7	-9	nt	4235	7	3
COC(=O)c1cc2occc2n1Cc1nc(-c2ccccc2C)oc1C	nt	nt	-10	-10	6070	nt	nt
Cc1cccc(CN2CCN(CCCc3ccccc3)CC2)c1	-1.3	-1	nt	7	nt	3	-13
CC(C)CC(NC(N)=O)C(=O)NCCc1ccc(Cl)cc1Cl (stereo not given)	0.9	2	-5	5	4145	13	4
COc1ccc(OC2C(=O)N(c3ccc(F)cc3)C2c2ccc(OC)c(OC)c2)cc1 (stereo not given)	3.6	4	-10	1	9369	4	6
COc1ccc(S(=O)(=O)Cc2ccc(C(=O)NCc3cccnc3)o2)cc1	-1.2	2	9	-6	5894	nt	nt
O=C(Nc1ccc(C(=O)N2CCCCC2)cc1)c1cccc([N+](=O)[O-])c1	-4.4	0	-7	1	6482	6	0
N#CCC(=O)N1CC2(CC(c3cccc(NC(=O)COc4ccc(Cl)cc4)c3)=NO2)CC1C(N)=O (stereo not given)	7.0	1	nt	nt	nt	4	22
COc1ccccc1CNC(=O)c1cc(-c2ccccc2C)nn1CC1CC(c2cccnc2)=NO1 (stereo not given)	-1.0	-3	-14	nt	3198	2	4
CCc1c(C(=O)Nc2ncn(Cc3cccc(C)c3)n2)csc1C	1.9	-1	-13	5	16518*	10	13
O=C(CCS(=O)(=O)c1ccccc1)N(CCCN1CCOCC1)c1nc2ccc(F)cc2s1	nt	nt	-49	18	6223	nt	nt
CCN1CCN(c2ccc(S(=O)(=O)N3CCCCC3)cc2NC(=O)/C=C/c2ccc(Cl)cc2)CC1	4.3	-5	-15	nt	4074	2	3
O=C(NCCN1CCOCC1)c1ccccc1N1C(=O)[C@@H]2Cc3c([nH]c4ccccc34)C(c3ccccc3)N2C1=O (stereo not given in full)	-2.7	7	-7	4	5051	nt	nt
COc1ccccc1C(=O)NCC(=O)OCC(=O)N(CC(C)C)c1c(N)n(Cc2ccccc2)c(=O)[nH]c1=O	-0.9	0	-6	-1	?	-4	-4
Cc1ccc(Nc2c([N+](=O)[O-])c(=O)oc3ccccc23)cc1C	0.9	2	-21	7	4913	-13	-3
CC(=O)N(C(C)=O)c1c(N2CCCC2)c2ccccc2oc1=O	13	5	-23	3	4493	13	3
COc1ccccc1NC(=O)CCSCCC(=O)Nc1ccccc1OC	4.5	0	-19	-9	2534	-6	6

Main list, from the start:
SMILES	Sa RN4220 lethal	ugtP null kill	PrP UTR inh	BJeLR viability	Autofluor counter	Mtb hypoxia rep	Mtb hypoxia rep growth
C/C(N)=C(/C#N)C(=O)COc1ccc(Cl)cc1Cl	nt	nt	-31	-2	2485	nt	nt
O=C(c1cc2nc(-c3ccccc3)cc(C(F)(F)F)n2n1)N1CCCC1	-0.5	7	-9	nt	4235	7	3
COC(=O)c1cc2occc2n1Cc1nc(-c2ccccc2C)oc1C	nt	nt	-10	-10	6070	nt	nt
Cc1cccc(CN2CCN(CCCc3ccccc3)CC2)c1	-1.3	-1	nt	7	nt	3	-13
CC(C)CC(NC(N)=O)C(=O)NCCc1ccc(Cl)cc1Cl (stereo not given)	0.9	2	-5	5	4145	13	4
COc1ccc(OC2C(=O)N(c3ccc(F)cc3)C2c2ccc(OC)c(OC)c2)cc1 (stereo not given)	3.6	4	-10	1	9369	4	6
COc1ccc(S(=O)(=O)Cc2ccc(C(=O)NCc3cccnc3)o2)cc1	-1.2	2	9	-6	5894	nt	nt
O=C(Nc1ccc(C(=O)N2CCCCC2)cc1)c1cccc([N+](=O)[O-])c1	-4.4	0	-7	1	6482	6	0
N#CCC(=O)N1CC2(CC(c3cccc(NC(=O)COc4ccc(Cl)cc4)c3)=NO2)CC1C(N)=O (stereo not given)	7.0	1	nt	nt	nt	4	22
COc1ccccc1CNC(=O)c1cc(-c2ccccc2C)nn1CC1CC(c2cccnc2)=NO1 (stereo not given)	-1.0	-3	-14	nt	3198	2	4
CCc1c(C(=O)Nc2ncn(Cc3cccc(C)c3)n2)csc1C	1.9	-1	-13	5	16518*	10	13
O=C(CCS(=O)(=O)c1ccccc1)N(CCCN1CCOCC1)c1nc2ccc(F)cc2s1	nt	nt	-49	18	6223	nt	nt
CCN1CCN(c2ccc(S(=O)(=O)N3CCCCC3)cc2NC(=O)/C=C/c2ccc(Cl)cc2)CC1	4.3	-5	-15	nt	4074	2	3
O=C(NCCN1CCOCC1)c1ccccc1N1C(=O)[C@@H]2Cc3c([nH]c4ccccc34)C(c3ccccc3)N2C1=O (stereo not given in full)	-2.7	7	-7	4	5051	nt	nt
COc1ccccc1C(=O)NCC(=O)OCC(=O)N(CC(C)C)c1c(N)n(Cc2ccccc2)c(=O)[nH]c1=O	-0.9	0	-6	-1	?	-4	-4

Record cards (already shown). Screens in order: Sa RN4220 lethal, ugtP null kill, PrP UTR inh, BJeLR viability, Autofluor counter, Mtb hypoxia rep, Mtb hypoxia rep growth
O=C(CCS(=O)(=O)c1ccccc1)N(CCCN1CCOCC1)c1nc2ccc(F)cc2s1 as listed: nt, nt, -49, 18, 6223, nt, nt
O=C(c1cc2nc(-c3ccccc3)cc(C(F)(F)F)n2n1)N1CCCC1 as listed: -0.5, 7, -9, nt, 4235, 7, 3

The listing continues.
SMILES	Sa RN4220 lethal	ugtP null kill	PrP UTR inh	BJeLR viability	Autofluor counter	Mtb hypoxia rep	Mtb hypoxia rep growth
Cc1ccc(Nc2c([N+](=O)[O-])c(=O)oc3ccccc23)cc1C	0.9	2	-21	7	4913	-13	-3
CC(=O)N(C(C)=O)c1c(N2CCCC2)c2ccccc2oc1=O	13	5	-23	3	4493	13	3
COc1ccccc1NC(=O)CCSCCC(=O)Nc1ccccc1OC	4.5	0	-19	-9	2534	-6	6
CCOC(=O)C1=C(CC)OC(N)=C(C#N)C1c1ccc(OC)c(C)c1OC (stereo not given)	-2.0	14	-28	-9	2513	3	0
CCNS(=O)(=O)c1ccc(NC(=S)NCC2CCCO2)cc1 (stereo not given)	1.1	3	-15	3	4955	1	9
O=C(Cc1ccc(Cl)cc1)NC(=S)Nc1ccccc1O	3.8	2	-11	22	3491	4	8
Cc1c(OCC(=O)N2CCC(C(N)=O)CC2)ccc2c1oc(=O)c1ccccc12	1.0	1	-36	3	6038	nt	nt
COc1ccc(CCNC(=O)CSc2nc(N)cc(=O)[nH]2)cc1OC	4.8	6	-6	1	3423	8	-1
Cc1ccc(SCCNC(=S)Nc2cc(C)cc(C)c2)cc1	-3.4	-13	-6	-2	2157	nt	nt
Cc1ccc(/C=C/S(=O)(=O)NCC(=O)OCC(=O)Nc2ccc(C(=O)N(C)C)cc2)cc1	3.2	-2	-31	nt	3886	10	1
Cc1cc(Br)ccc1OCCN1CCCC1	4.7	9	-6	15	nt	6	7
CCC(=O)Nc1ccc(Cl)c(NC(=S)NC(=O)c2cc3ccccc3o2)c1	6.0	5	-45	4	2202	-2	1
CN1CCN(S(=O)(=O)c2ccc(N3CCc4ccccc4C3)nc2)CC1	4.0	0	-25	-2	2553	6	16
Cc1ccn(C(=O)c2cc3ccccc3oc2=O)n1	2.5	3	nt	-2	nt	4	-6
CC(C)NS(=O)(=O)c1ccc(NC(=O)C(C)OC(=O)CCC2CCCC2)cc1 (stereo not given)	11	2	-3	nt	3797	3	7
FC(F)(F)c1cnc2c(-c3ccc(Cl)cc3Cl)noc2c1	0.0	-21	-22	-8	2463	-2	-4
O=C(CCc1nc(-c2ccccc2)no1)Nc1cccc(C(=O)NC2CC2)c1	-1.9	-4	-5	nt	2984	3	4
COc1cc(Cl)nn(-c2ccccc2)c1=O	1.5	2	-13	-3	6626	3	8
CN1CCN(S(=O)(=O)c2ccc(NC(=O)c3ccc(F)cc3Cl)cc2)CC1	0.5	3	9	1	3183	-1	-1
CN1C(=O)C(CC(=O)Nc2ccc(F)cc2)N(Cc2cccs2)C1=S (stereo not given)	2.2	-1	-21	5	3901	5	7
CC(C)(C)Nc1nc(Oc2ccc(=O)[nH]n2)nc(N2CCOCC2)n1	8.3	18	-23	2	4570	11	0
CC(=O)N1CCc2cc(S(=O)(=O)NCCCN3CCCCC3)ccc21	3.8	10	-2	-3	5057	9	4
CC(O)c1cccc(NC2=CC(=O)CC(C)(C)C2)c1 (stereo not given)	-1.2	0	-24	-14	22635*	-3	-6
Cc1ccc(OCCCCNC(C)(C)C)c([N+](=O)[O-])c1	5.9	-2	-1	11	1969	4	4
COc1ccc(C=NNC(=O)c2ccn[nH]2)cc1Cn1nc(C)c([N+](=O)[O-])c1C	1.8	1	nt	nt	nt	6	1
CCCNC(=O)Cn1c(=O)/c(=C\c2ccc(-c3ccc([N+](=O)[O-])cc3)o2)s/c1=C\C(=O)C(C)(C)C	nt	nt	-6	5	12168	nt	nt
Cc1cc(Cl)ccc1OCc1nnc(-c2ccccc2C)o1	2.9	8	-53	nt	?	6	-7
CCSc1nnc(NC(=O)COc2ccccc2[N+](=O)[O-])s1	6.4	7	-26	19	3986	2	0
N#Cc1ccccc1Sc1ccccc1C(=O)Nc1ccc2ccccc2c1	-4.3	-2	-52	-7	2558	-8	-5
CCCn1nc(NC(=O)COC)c2cc3cccc(C)c3nc21	2.3	5	-15	5	3792	5	3
O=C(CSc1ncn[nH]1)c1ccc2c(c1)OCCO2	4.5	-5	-10	9	10824	13	4
COCc1nnc(NC(=O)C23CC4CC(CC(C4)C2)C3)s1	6.0	5	-26	nt	?	0	0
COc1cc2nc(COc3ccccc3[N+](=O)[O-])oc(=O)c2cc1OC	4.8	3	-14	2	2536	21	-3
O=C(COc1ccc(F)cc1)N1CCC(c2ccccc2)C1 (stereo not given)	1.2	-2	-60	9	3596	16	5
COc1ccc(CNc2cccc3[nH]c(C(F)(F)F)nc23)cc1	1.6	5	-2	5	3580	-15	2
CC1(C)CC(NC(=O)COc2ccc3ccccc3c2)CC(C)(C)N1	3.2	0	0	-3	3583	16	10
COc1ccc2c(c1)c(C(=O)O)c(C)n2C(C)C	-3.6	6	-9	10	4060	nt	nt
CSc1ccccc1NC(=O)c1cc2c(=O)n3ccccc3nc2s1	4.4	4	-42	5	5899	1	3
Cc1ccc(NC(=O)C(C)OC(=O)C2CC3CCCC(C2)C3=O)cc1S(=O)(=O)N1CCOCC1 (stereo not given)	3.1	0	-18	nt	4500	14	10
COC(=O)CCC(=O)c1ccn(S(=O)(=O)c2ccccc2)c1	1.1	5	-5	4	3137	2	-6
CCOc1ccccc1C=NNC(=O)c1cccc(S(=O)(=O)N(CC)CC)c1	11	-38	nt	nt	nt	17	8
CC(C)Nc1nc(-c2cccnc2)nc(-c2ccc(Cl)cc2)c1C#N	0.6	3	-10	2	2777	-1	-3
C=Cn1nc(C)c2ccccc2c1=O	0.2	10	-18	1	4140	nt	nt
COCCCNC(=S)N/N=C/c1ccc(O)cc1O	nt	nt	-10	4	6199	nt	nt
CC=CC1=CC(=O)CC(c2ccc(F)cc2)C1 (stereo not given)	-0.6	0	nt	nt	nt	11	-2
CC1Sc2ccc(C(=O)NCc3ccccn3)cc2NC1=O (stereo not given)	3.2	11	-23	nt	4512	9	9
CCCC(C)C(=O)Nc1ccc(Cl)cn1 (stereo not given)	-4.7	9	-29	-1	?	nt	nt
COc1ccccc1C(c1nnnn1Cc1ccccc1)N1CCN(c2nc3ccccc3s2)CC1 (stereo not given)	-2.6	-6	4	-5	2555	nt	nt
COc1ccc(OC)c(C=NNC(=O)CC(=O)NCc2ccccc2)c1	2.5	-2	nt	nt	nt	0	11
C=CCn1c(SCC(=O)c2c(N)n(C3CC3)c(=O)[nH]c2=O)nnc1-c1ccoc1C	-2.3	-1	-18	nt	4149	-7	-13
CC(=O)c1ccc(NC(=O)N2C[C@H]3C[C@@H](C2)c2cccc(=O)n2C3)cc1	3.0	-5	-37	4	6263	nt	nt
CN(c1ccccc1)S(=O)(=O)c1cccc(NC(=O)C2=NN(c3ccccc3)C(=O)CC2)c1	9.7	3	-8	nt	nt	-6	-3
